Source: PubChem BioAssay (National Center for Advancing Translational Sciences (NCATS))
TRPV1 potentiator – enhances activation of the human vanilloid receptor TRPV1; TRPV1-expressing cells, Fluo-8 calcium influx, capsaicin EC20 potentiation; host cell line not named in the record; control for the full effect not named in the record; actives 0.02% (n = 320,000); potentiation, % at 8.33 µM; active means potentiation above 80%; inconclusive means 30% to 80%; inactive means below 30%; also: 0% is about no effect
Target sequence (Q8NER1 whole entry, looked up): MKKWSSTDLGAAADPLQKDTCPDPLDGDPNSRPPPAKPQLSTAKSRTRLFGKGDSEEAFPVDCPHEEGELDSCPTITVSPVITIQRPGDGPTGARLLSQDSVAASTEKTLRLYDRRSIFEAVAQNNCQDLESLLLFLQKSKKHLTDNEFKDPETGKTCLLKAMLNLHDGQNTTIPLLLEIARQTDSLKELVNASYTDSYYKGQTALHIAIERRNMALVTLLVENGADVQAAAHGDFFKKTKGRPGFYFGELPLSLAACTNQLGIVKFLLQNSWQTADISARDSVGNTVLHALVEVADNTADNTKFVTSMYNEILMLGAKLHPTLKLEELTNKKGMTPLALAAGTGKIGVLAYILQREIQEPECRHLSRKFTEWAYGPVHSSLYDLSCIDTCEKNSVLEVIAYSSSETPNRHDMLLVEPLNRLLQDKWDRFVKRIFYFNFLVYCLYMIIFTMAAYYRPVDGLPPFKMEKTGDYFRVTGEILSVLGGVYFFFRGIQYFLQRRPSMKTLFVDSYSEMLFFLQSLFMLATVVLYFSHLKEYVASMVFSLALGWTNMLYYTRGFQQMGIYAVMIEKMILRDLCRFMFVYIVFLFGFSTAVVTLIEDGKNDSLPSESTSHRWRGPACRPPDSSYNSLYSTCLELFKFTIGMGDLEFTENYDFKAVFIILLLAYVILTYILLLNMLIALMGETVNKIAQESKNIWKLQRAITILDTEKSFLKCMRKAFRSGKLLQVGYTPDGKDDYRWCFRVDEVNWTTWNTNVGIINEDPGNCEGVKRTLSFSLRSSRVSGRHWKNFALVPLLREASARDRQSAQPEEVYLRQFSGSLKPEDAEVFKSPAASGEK
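Fluo-8 calcium influx in TRPV1-expressing cells, kinetic read (ex 480/em 520 nm). Compound added and read 3 min for agonist activity, followed by capsaicin at EC20 final and 2 min further read for enhancement.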
Menin MLL FP FL – menin-MLL binding inhibition, fluorescein peptide | Fluorescence polarization, fluorescein-MLL peptide displacement from menin | FP activity change, % at 61.4 µM | 290,000 tested, under 10 active | AID 1766; inconclusive = falling polarisation curve, or a change in total fluorescence; inactive = total fluorescence flat and polarisation flat or rising; no compound was filed as active; the % refers to the polarisation; negative = inhibition;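 also: % of control where 0% means no effect; inhibitors lower the polarisation; unlabelled MLL peptide was the positive control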
TRPML1 blocker – inhibitors of human TRPML1 channel. AID 624415. activity change, negative = inhibition, % (no concentration beside the values). actives 0.02% (n = 390,000). Q9GZU1. TRPML1-inducible cells, Ca2+ dye fluorescence, FDSS; active compounds read low; inhibition of EC80 agonist-evoked calcium signal; in the data active means activity change below about -50%; inconclusive means about -30% to -50%; inactive means above about -30%;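 also: stimulus is agonist 54-4 at its EC80 concentration; % is scaled to controls: 0 for no effect and ±100 for the full control effect; compound concentration not given in the record; the text of the record puts the active cut at -80%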
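Tet-induced TRPML1-DL cells loaded with Ca8 no-wash calcium dye were read kinetically on FDSS. Compound addition was followed by EC80 agonist 54-4 (4 uM final); inhibition was read over 110 s.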
Sfp inh – Sfp phosphopantetheinyl transferase inhibition; Q9F4F7; Biochemical Sfp PPTase activity, qHTS; Potency, µM, for the others: max response, negative = inhibition, hits mostly inhibitors; actives 3.5% (n = 310,000); active = well fitted inhibition curve with a large enough effect; inconclusive = small, poorly fitted or top-dose-only effect, or another doubt; inactive = no such curve, though single readings can be large or run the other way;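 also: the enzyme is Sfp with the accession as filed and its product quenches rhodamine fluorescence; potency is read from the fitted curve at half-maximal effect; 0% = enzyme reaction without inhibitor and -100% = no enzyme wells; top concentration of the series not given in the record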
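Fluorescence-quenching assay: 15 nM Sfp-PPTase preincubated 15 min at room temperature with compound, then 5 uM rhodamine-CoA and 12.5 uM BHQ-2-labelled YbbR peptide added. Fluorescence (ex 525/em 598 nm) read at start and after 30 min; difference gives rate.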
ClpP mod – qHTS Assay for Activators of ClpP; actives 1.9% (n = 340,000); purified B. subtilis ClpP, FRET peptide cleavage, 20 min; ATP-dependent Clp protease proteolytic subunit (Bacillus subtilis (strain 168)), P80244; Potency, µM (top dose mostly 57.5 µM), for inactives: at the highest dose activity change, negative = active; active = well fitted falling curve with a large enough effect; inconclusive = small, poorly fitted or top-dose-only effect; inactive = no such curve, though single readings can be large or run the other way; also: potency is read from the fitted curve at half-maximal effect; the source files actives as falling curves though it sought activators and does not explain the sign; nearly all actives have a fitted effect of over 65% in size; many hits overshoot -100%
Target sequence (P80244 whole entry, looked up): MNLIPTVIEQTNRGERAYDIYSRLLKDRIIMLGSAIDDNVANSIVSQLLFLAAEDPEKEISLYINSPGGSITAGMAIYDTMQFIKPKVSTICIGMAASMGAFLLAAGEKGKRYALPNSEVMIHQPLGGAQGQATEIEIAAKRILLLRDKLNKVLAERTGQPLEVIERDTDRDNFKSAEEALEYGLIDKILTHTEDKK
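Buffer: 100 mM Tris/HCl pH8, 100 mM KCl, 0.05% low protease BSA, 2.5% glycerol, 0.01% Tween-20. ClpP 10 microg/mL final; 20 min RT; delta FRET normalized to ADEP and DMSO controls.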
PINK1 modulator – modulators of PINK1 expression; PINK1 immunofluorescence, high-content cytometry, 24 h; actives 0.2% (n = 410,000); Potency, µM (top dose mostly 76.6 µM), for inactives: at the highest dose activation (PINK1 increase), actives largely listed as activators; active = well fitted activation curve with a large enough effect; inconclusive = small, poorly fitted or top-dose-only effect; inactive = flat fitted curve, though single readings scatter; cell line not stated here;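 also: potency is read from the fitted curve at half-maximal effect; % of control where 0% means no effect; nearly all actives have a fitted effect of over 65% in size; a mitochondrial uncoupler was the plate control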
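PINK1 protein level read as immunofluorescence by microplate cytometer in a fixed, stained stable cell line after 24 h exposure to five compound concentrations, with CCCP as control.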
TRPML1 agonist – activates the human TRPML1 channel; TRPML1-expressing cells, Ca2+ dye fluorescence, FDSS; host cell line not named in the record; reference of the full effect not given here; activation, % (test concentration not listed); actives 0.12% (n = 410,000); AID 624414; in the data active = activation above about 50%; inconclusive = about 30% to 50%; inactive = below about 30%; also: 0% is about no effect; the text of the record puts the active cut at 80%
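Calcium fluorescence on an FDSS kinetic reader gave the read-out. Tet-induced TRPML1-DL cells were plated overnight, dye-loaded (Ca8 with quencher, 45-90 min, room temperature, dark), then read 110 s after compound addition, and again 110 s after 4uM final 54-4 (EC80).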
Numbers without * were called inactive; ? = inconclusive; / = no result given; [ ] = another dose, or the depositor's remark.

SMILES	TRPV1 potentiator	Menin MLL FP FL	TRPML1 blocker	Sfp inh	ClpP mod	PINK1 modulator	TRPML1 agonist
O=C(NC1CCCCCC1)c1ccc(OCC2CCCO2)cc1 (stereo not drawn)	-17.1	3.7	-16.6	13.7%	/	-0.1%	-0.1
CCOc1ccccc1C(=O)NCC(=O)OCC(=O)NCCc1ccc(S(N)(=O)=O)cc1	15.7	-0.8	6.2	-6.9%	-4.8%	0.1%	-0.3
Cc1ccc(C)c(NS(=O)(=O)c2cc(C(=O)NCCC3=CCCCC3)ccc2C)c1	-19.7	-1.0	2.3	0.8%	0.6%	-2.7%[38.3 µM]	1.4
CCN1CCc2c(OCC(=O)N3CCCc4ccccc43)cccc2C1=O	-4.0	-1.3	-21.1	18.6%	/	1.6%	-0.7
CCN(Cc1ccccc1)Cc1c(O)ccc2oc(C)c(C(=O)Nc3ccccc3C)c12	/	/	53.0	/	-5.8%	2.8%	0.7
Cc1oc(C)c2c(=O)ccc3c(c12)OC(N)=C(C#N)C3c1ccccc1 (stereo not drawn)	-0.7	?	56.6	-35.1%	1.2%	?	0.8
COc1cccc(/C=C/C(=O)N(C)CC(=O)Nc2ccc(Cl)c(C(F)(F)F)c2)c1	-13.3	/	-0.1	/	-3.9%	18.3%	1.4
CCCCn1c(-c2ccc(Cl)c(Cl)c2)nc2cc3[nH]c(=O)c(C(C)C)nc3cc21	-9.2	-0.1	-19.3	?	3.6%	1.1%	1.2
CCOc1ccc(CC(=O)N2CCC3(CC2)NCCc2[nH]cnc23)cc1	-3.2	/	2.9	3.9%	-0.2%	3.3%	0.5
COc1ccc2c(CNCCc3ccccc3)c(C(=O)O)n(Cc3cccc(F)c3)c2c1	/	/	3.6	/	-19.8%	-1.4%	-0.8
CCN1CCc2c(sc(NC(=O)Nc3ccc(Cl)c(Cl)c3)c2C(N)=O)C1	14.5	/	-17.1	-21.3%	-4.4%	14.1µM*	80.8*
CCCc1nn2c(=O)cc(COC(=O)c3cccc(NC(=O)c4ccc(OCC)cc4)c3)nc2s1	/	/	-25.8	/	4.8%	1.3%	1.0
OC[C@@H](O)C1OC2NC(=S)OC2C1O (stereo partly drawn)	-6.2	3.2	-2.2	6.5%	/	?	-0.7
Clc1cc(Cl)cc(C2=NC(Cc3ccccc3)CO2)c1 (stereo not drawn)	/	/	0.4	/	1.8%	9.0%	-0.5
COc1ccc(NCc2ccc(OC)c(OC)c2)cc1	7.5	4.7	/	-2.5%	/	/	/
CCOC(=O)c1sc(=NC(=O)c2ccc(C)cc2)n(C)c1C	6.1	0.4	-9.9	14.9%	/	10.7%	-1.5
O=C(NCc1nc2ccccc2[nH]1)C1=C[C@@H](c2ccccc2)C[C@@H](OCc2ccc(CO)cc2)O1	-3.0	6.9	-14.7	9.3%	0.2%	0.9%	0.5
CCOC(=O)c1ccc(S(=O)(=O)NCCN2CCOCC2)cc1	3.5	1.3	16.0	5.3%	/	1.0%	0.9
Cc1cc(C)nc(N2CCCC(C(=O)Nc3nnc(C)s3)C2)n1 (stereo not drawn)	-9.1	-0.5	7.4	10.7%	?	-0.7%[38.3 µM]	0.7
CCOC(=O)c1c(C)[nH]c(C(=O)OCC(=O)Nc2ccc(OCC)cc2)c1C	8.5	-1.8	4.1	9.2%	-0.9%	?	2.0
Cc1ccc(-n2c(O)c(C=NC3CCS(=O)(=O)C3)c3ccccc3c2=O)cc1C (stereo not drawn)	-5.6	2.2	-11.2	24.5%	-2.3%	-5.9%[38.3 µM]	-0.2
CC(C)c1ccc(/C=C/C(=O)Nc2nncs2)cc1	-13.6	3.8	-0.8	9.4%	3.6%	10.5%	3.6
O=[N+]([O-])c1ccc(N2CCN(S(=O)(=O)c3ccccc3[N+](=O)[O-])CC2)cc1N1CCc2ccccc2C1	-1.3	0.1	-15.3	7.5%	0.9%	0.6%	0.1
Cc1ccc(-c2nc3cccc(C)n3c2Nc2ccc3c(c2)OCCO3)cc1	/	/	8.2	/	4.3%	-1.0%	3.9
Cc1ccc(-c2nnc(SCC(=O)NNC(=O)COc3ccccc3C)n2C)cc1	12.2	5.4	-6.9	29.3%	1.0%	2.6%	-0.2
CC(C)OCCCNC(=O)c1ccc(Br)cc1	-22.5	-0.4	7.0	2.6%	-1.5%	/	0.0
CSCCC(NC(=O)/C(=C/c1ccco1)NC(=O)c1ccco1)C(=O)O (stereo not drawn)	/	/	-2.5	/	/	-0.6%	0.0
CCCCN(Cc1ccccc1)C(=O)c1oc(=O)c2ccccc2c1-c1ccc(C)cc1	/	/	5.5	/	1.3%	2.3%	2.3
O=C(c1csc2c1CCCC2)N1CCCCC1	-1.8	1.5	-11.9	13.3%	0.3%	-3.7%	0.2
CCCCn1cc(S(=O)(=O)c2ccc(CC)cc2)c(=O)c2cc(F)c(N3CCOCC3)cc21	/	/	-0.3	/	?	-1.1%	0.3
Cc1ccccc1CC(=O)NC1CCN(Cc2ccccc2)CC1	?	2.8	-2.9	-3.7%	/	1.0%	0.0
COc1ccc(NC(=O)CC2C(=O)N(c3ccccc3)C(=O)N2C2CCCCC2)cc1 (stereo not drawn)	/	/	-1.7	/	-0.7%	-0.5%	-0.7
CCCCNC(=O)CCn1c(=O)c2ccccc2n(CC(=O)N2CC(C)CC(C)C2)c1=O (stereo not drawn)	13.7	3.2	3.7	14.7%	-2.1%	0.2%	-0.5
CSc1cnc2c(N)nc(N(C)C)nc2n1	-3.5	-3.4	5.7	-2.7%	-3.2%	-0.8%	0.3
CCn1cc(CN2CCC(C(=O)Nc3ccc(Oc4cccnc4)cc3)CC2)cn1	-14.1	/	8.8	22.7%	-3.8%	1.7%	0.0
Cc1ccc(C)c(NC(=O)C2(C)CCN2C(C)C)c1 (stereo not drawn)	/	/	/	/	2.3%	1.5%	-1.0
O=C1C=C(c2cc(C(F)(F)F)cc(C(F)(F)F)c2)C[C@@H](c2ccc(Cl)cc2)C1	11.7	/	3.0	/	-1.8%	1.0%	3.8
Cc1ccc(N2CC(=O)N(NC(=O)CN3CCN(c4ccccc4)CC3)CC2=O)cc1	-7.8	1.0	-12.5	14.6%	/	3.4%	-0.9
CN(C(=O)c1cc(COc2ccc(F)cc2Cl)on1)C1CCCc2ccccc21 (stereo not drawn)	6.7	/	69.2	1.8%	-1.0%	0.9%	0.8
O=[N+]([O-])c1ccccc1Nc1ccc(O)cc1	-4.8	3.7	3.2	0.9%	/	0.9%	3.7
O=C(NC(=S)Nc1ccccc1C(=O)O)c1ccc2ccccc2c1	-5.5	-1.9	11.5	44.7µM*	/	0.0%	1.2
Cn1cnc2c(=O)oc3ccc(S(=O)(=O)Nc4ccc(F)cc4)cc3c21	/	/	29.2	/	-8.1%	2.7%	-0.7
COc1cc2[nH]c3c(=O)n(CCN4CCCCC4)cnc3c2cc1OC	-3.9	2.2	-0.8	12.4%	14.1µM*	-1.0%	-0.3
CN(C)CCCN(C(=O)c1ccc(S(=O)(=O)N2CCc3ccccc32)cc1)c1nc2ccc(Cl)cc2s1	-14.7	/	12.0	?	1.1%	?	0.0
COc1cc(CNCc2c[nH]c3ccccc23)cc(OC)c1	-9.5	1.8	8.3	-3.2%	0.5%	11.7%	0.3
COc1ccc(NC(=S)Nc2nc(CC(=O)Nc3ccccc3OC)cs2)cc1	19.5	1.0	26.7	-10.9%	-3.2%	-1.4%[38.3 µM]	0.0
CSc1nc(N)nc2c1ncn2Cc1ccccc1	/	/	0.4	/	/	3.8%	-0.8
NC(=O)CSc1nc(C23CC4CC(CC(C4)C2)C3)nc2ccccc12	5.3	-1.5	-1.5	-4.1%	0.9%	3.3%	3.1
COc1ccc(-c2cc(C(=O)Nc3cnn(Cc4ccc(F)cc4)c3)no2)cc1OC	/	/	38.0	/	3.8%	5.9%	-0.2
C/C(=N\Nc1ccc(F)cc1F)c1ccc(F)cc1	0.2	1.0	/	2.8%	/	/	/
O=C(O)C1=C(Nc2ccccc2)OCC1=O	2.9	2.1	59.2	20.9%	/	-0.8%	2.5
COC(=O)c1ccc2c(c1)C(C)(C)C(/C=C/c1ccc(O)cc1)=[N+]2C	-10.9	13.2	2.7	44.7µM*	-16.1%	-4.9%[38.3 µM]	18.7
Cc1ccccc1-n1c(Cn2c(=O)sc3ccccc32)nnc1SC(C)C	18.9	-0.9	16.8	4.8%	2.0%	-1.0%	-0.5
CN(Cc1ccccc1)S(=O)(=O)c1ccc(Cl)c(C(=O)NCCc2ccccn2)c1	-3.9	-1.8	-23.0	3.1%	-0.9%	1.8%	-1.6
Cc1cc(C)cc(OCC(=O)Nc2cccc(S(=O)(=O)NC3=NCCC3)c2)c1	1.8	/	-12.8	/	-2.6%	0.4%	1.0
COC(=O)CCCSc1nccn1-c1ccccc1	-1.1	-1.5	0.6	5.4%	-2.5%	0.9%	1.2
CC1CCC(NC(=O)CCS(=O)(=O)c2ccc3c(c2)NC(=O)CO3)CC1 (stereo not drawn)	5.9	2.9	15.4	1.3%	-0.6%	-0.3%	0.6
CC(C)(C)c1cc(NC(=O)c2cccc([N+](=O)[O-])c2)no1	-12.1	-2.1	19.8	26.0%	0.7%	3.6%	0.2
CCOc1ccc(-c2nc(S(=O)(=O)c3ccccc3)c(N3CCC(C(N)=O)CC3)o2)cc1	-12.6	/	41.2	-8.6%	-0.3%	-0.1%	-0.8
Cc1ccc(Cn2c(C)c(CNC(C)c3ccccc3)c(C(=O)O)c2C)cc1 (stereo not drawn)	/	/	-13.8	/	-4.4%	-1.2%	0.5

(more compounds)
SMILES	TRPV1 potentiator	Menin MLL FP FL	TRPML1 blocker	Sfp inh	ClpP mod	PINK1 modulator	TRPML1 agonist
CCOC(=O)C1(Cc2ccc(OC)cc2)CCN(C(=O)CCN2CCCC2=O)CC1	-5.0	1.8	1.4	10.7%	-5.3%	-1.5%	-0.4
CCOC(=O)C1=C(COC(=O)C2(C)CC2(Cl)Cl)NC(=O)NC1c1ccccc1 (stereo not drawn)	-19.1	0.9	-6.1	8.1%	2.1%	3.7%	-0.3
O=C(Nc1ccccc1)N(Cc1cccnc1)Cc1ccco1	-2.5	-0.6	17.3	-3.9%	0.6%	10.3%[38.3 µM]	0.3
COc1ccc(N(C)C(=O)c2ccc3c(c2)nnn3C)cc1	-5.0	3.9	9.7	17.3%	0.4%	-0.8%	-0.1
CCCc1cc(C(=O)Nc2c(C)n(C)n(-c3ccccc3)c2=O)no1	1.4	-0.5	19.6	-18.6%	1.2%	1.9%	-0.1
